CSC inhib = cancer stem cell inhibition. cancer stem cell-like cells viability, luminescence. inhibition, % at 7.5 µM. hit rate 1.1% among 300,000. AID 2717;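 active = mean at 75% or more and at least half the replicates too; inconclusive = mean and replicates disagree; tested in HMLE shEcad cells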;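 note: 0% = median of negative and 100% = median of positive control wells; the first replicate is given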
Rce1 inhib = blocks yeast Ras-converting enzyme. Q03530. yeast membranes, quenched prenylated peptide cleavage fluorescence. calls only. hit rate 0.27% among 290,000;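 active = fall in fluorescence gain of 50% or more versus controls, with final raw signal at or below 3038400; inconclusive = same 50% fall but final raw signal above 3038400; inactive = fall in fluorescence gain under 50%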;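 note: plate controls were neutral control wells for no effect and wells lacking membranes for full effect; tested at 10 µM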
Target sequence (Q03530 whole entry, looked up): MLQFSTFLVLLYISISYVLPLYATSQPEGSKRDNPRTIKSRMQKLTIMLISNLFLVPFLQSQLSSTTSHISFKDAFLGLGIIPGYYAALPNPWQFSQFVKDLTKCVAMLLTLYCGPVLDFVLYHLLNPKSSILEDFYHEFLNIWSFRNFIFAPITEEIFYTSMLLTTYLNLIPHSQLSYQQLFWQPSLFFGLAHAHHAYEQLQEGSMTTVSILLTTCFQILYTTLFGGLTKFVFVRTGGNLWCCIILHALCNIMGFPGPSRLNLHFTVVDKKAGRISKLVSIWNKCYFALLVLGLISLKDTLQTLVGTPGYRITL
HIV Env fusion = blocks HIV Env-driven cell-cell fusion. inhibition, % at 12.3 µM. HeLa-JRFL Env/CEM21 cell fusion, luciferase. AID 651610. hit rate 1.1% among 360,000;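 active = mean replicate inhibition score of at least 50 and every replicate individually at or above 50; inconclusive = only one of the two criteria met; inactive = mean below 50 and not all replicates reaching 50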;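 note: 0% = plate neutral controls and 100% = maraviroc near 300 nM; one replicate is shown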
MT1-MMP act inh = MT1-MMP (human) activation inhibition; P50281; HT1080 RFP-PRO-GFP cells, GFP/RFP ratio fluorescence, overnight; percent of plate control window, DMSO zero; GFP/RFP ratio change, % at 20 µM; hit rate 0.061% among 360,000; AID 651647;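 active = GFP/RFP ratio change of at least 30% with cell ATP level not reduced by more than half and red fluorescence within 50% of control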; note: strong numbers were not always called active
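Assay system: HT1080 cells carrying an RFP-PRO-GFP reporter | Dosing: Single dose of 20 µM compound, 1% DMSO final | Incubation: Cells overnight before dosing, compound overnight, 37 °C, 5% CO2 | Evaluation: GFP/RFP fluorescence ratio | Control set: DMSO and RFP-L50D-GFP cell wells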
PABP FP inh = PABP-poly(A) binding inhibition; P11940; PABP-poly(A) RNA binding, fluorescence polarization; inhibition, % at 35 µM; hit rate 1% among 290,000; AID 2014;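 active = 50% or more with normal probe brightness, or confirmed in later tests; inconclusive = above 50% with abnormal brightness, or retests that disagree; inactive = below 50% or failed in later tests; about a fifth of its hits are not listed in these tables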;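 note: calls also rest on retests at 20 µM and on dose response follow-up; controls were probe without protein and protein plus probe with vehicle; some compounds called inactive have numbers as strong as hits; many hits fall short of the cut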
Target sequence (P11940 whole entry, looked up): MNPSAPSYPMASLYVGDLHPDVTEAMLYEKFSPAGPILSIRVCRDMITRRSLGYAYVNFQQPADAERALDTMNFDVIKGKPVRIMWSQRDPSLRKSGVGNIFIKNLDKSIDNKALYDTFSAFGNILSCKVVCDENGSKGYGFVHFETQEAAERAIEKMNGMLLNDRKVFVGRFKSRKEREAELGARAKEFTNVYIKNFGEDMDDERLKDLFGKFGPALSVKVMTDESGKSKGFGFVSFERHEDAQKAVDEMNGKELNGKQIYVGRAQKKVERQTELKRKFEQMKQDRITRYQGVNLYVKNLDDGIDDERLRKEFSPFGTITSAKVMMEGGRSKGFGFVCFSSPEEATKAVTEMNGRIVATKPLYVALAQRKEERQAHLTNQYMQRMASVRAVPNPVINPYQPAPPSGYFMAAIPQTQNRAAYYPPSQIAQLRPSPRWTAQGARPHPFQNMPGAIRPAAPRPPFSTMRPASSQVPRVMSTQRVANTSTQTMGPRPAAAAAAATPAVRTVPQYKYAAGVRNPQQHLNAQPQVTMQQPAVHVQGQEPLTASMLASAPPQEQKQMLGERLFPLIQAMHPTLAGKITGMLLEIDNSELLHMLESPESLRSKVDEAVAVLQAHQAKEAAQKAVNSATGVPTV
eIF4H inh = inhibitors of RNA binding by human eIF4H; eIF4H fluorescence polarization binding assay; inhibition, % at 35 µM; hit rate 0.94% among 290,000; AID 2012;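 active = 50% or more with normal probe brightness, or confirmed in later tests; inconclusive = above 50% with abnormal brightness, or retests that disagree; inactive = below 50% or failed in later tests; about a fifth of its hits are not listed in these tables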;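 note: calls also rest on retests at 20 µM and on dose response follow-up; 0% = protein and probe with vehicle and 100% = probe without protein; strong numbers were not always called active; many hits fall short of the cut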
Yeast UUG start = modulators of start codon recognition fidelity in yeast. S. cerevisiae UUG-firefly luciferase reporter, luminescence/redox ratio. activity score, % at 18.7 µM. hit rate 0.13% among 350,000;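 active = replicate mean at a twofold rise or more, about +100% in these data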;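 note: firefly luciferase made from a UUG start codon reports start codon fidelity; reporter light over untreated wells divided by growth signal over untreated wells; some hits fall short of that in this replicate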
MT1-MMP act inh RFP = further read-out of MT1-MMP act inh, marked with its call; RFP signal change, %; measured here: RFP expression control read;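 0 = vehicle wells; hits needed this value within 50% of zero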
Numbers without * were called inactive; i = inactive; ? = inconclusive; nt = not tested or not shown; & = joins results of further samples. This is a random part of the collection. About 3% of those tested had a hit in this group.

SMILES	CSC inhib	Rce1 inhib	HIV Env fusion	MT1-MMP act inh	MT1-MMP act inh RFP	PABP FP inh	eIF4H inh	Yeast UUG start
Cc1ccc(SCCSc2nc(N)cc(=O)[nH]2)cc1	7	i	35	4	-6	-7	-8	-22
O=C(NCCN1CCOCC1)c1ccccc1OCc1ccccc1	-7	nt	-11	1	0	nt	nt	-5
O=[N+]([O-])c1cccc(-c2ccc3nnc(SCc4cccnc4)n3n2)c1	nt	nt	22	-8	-6	nt	nt	-2
Cc1nn(CC(=O)c2ccccc2Cl)c(C)c1[N+](=O)[O-]	2	i	1	-3	-1	-10	-9	nt
Cc1ccc(C(=O)OCC(=O)NCc2cccs2)cc1	15	nt	8	1	3	-12	-3	-8
CCN(CC)S(=O)(=O)c1ccc(N/N=C(\C)c2ccc(OC)cc2O)nc1	48	i	-1	-6	-2	4	1	nt
COc1ccccc1NC(=O)c1ccc(NC(=O)C2CC2C)cc1 (stereo not drawn)	1	nt	-12	-1	3	nt	nt	-11
CC(C)(C)OC(=O)CN1C(=O)C(Sc2n[nH]c(-c3ccccc3)n2)CCc2ccccc21 (stereo not drawn)	-5	i	nt	0	-13	-3	-12	-10
COCCn1nnnc1C(c1ccccc1Cl)N1CCN(c2ccccc2OC)CC1 (stereo not drawn)	nt	i	nt	0	-7	8	7	nt
CSc1cccc(CN2CCN(Cc3ccccc3)C(CCO)C2)c1 (stereo not drawn)	7	i	-8	-10	-4	12	6	nt
COc1ccc(-c2nc(N=Nc3ccc(O)cc3)n[nH]2)cc1	1	i	-16	17	4	8	-4	-26
CC(C)Nc1nnc(SC(C)C(=O)NCc2ccc3c(c2)OCO3)s1 (stereo not drawn)	-6	i	-8	-2	-1	-5	0	nt
O=C1c2cc(Cl)ccc2OC2(CCNCC2)C12CC(c1ccc(Cl)cc1)=NO2 (stereo not drawn)	1	i	nt	0	-1	-4	4	-20
CCc1cccc(NC(=O)CS(=O)Cc2nc(-c3ccc(C)cc3)oc2C)c1 (stereo not drawn)	15	i	-16	1	-1	-5	-16	0
COC(C(=O)Nc1ccc(S(=O)(=O)N2CCCCC2)cc1)c1ccccc1 (stereo not drawn)	1	nt	nt	2	0	-1	-3	-5
Cn1c(=O)n(C)c2cc([N+](=O)[O-])c(N3CCN(C(=O)c4ccccc4Br)CC3)cc21	-3	i	30	3	-14	-5	-6	nt
CNC(=O)CSc1nnc(-c2ccc(S(=O)(=O)N3CCCC3)cc2)n1-c1cccc(C)c1C	-16	i	nt	1	6	-10	-3	5
CSc1nc2ccccc2nc1N(C)S(=O)(=O)c1ccc(C)cc1	16	i	6	-21	-17	-6	5	-6
CC(C)OC(=O)c1cccc(C(=O)Nc2cccc(NC(=O)c3cccc(C(=O)OC(C)C)n3)n2)n1	-11	nt	-6	-1	0	1	-7	-5
Cn1cccc1C(=O)OCC(=O)NNC(=O)c1ccc([N+](=O)[O-])cc1	-9	nt	nt	11	1	nt	nt	-15
O=C(O)C1C2CCC(C2)C1C(=O)NCCCn1ccnc1 (stereo not drawn)	3	i	nt	0	6	-8	1	-3
O=C(Nc1cccnc1)c1cc(-c2ccc3c(c2)OCO3)on1	20	i	-264	5	5	-6	-9	-35
CC1=C(C(=O)Nc2ccccn2)C(c2ccc(F)cc2)n2ncnc2N1 (stereo not drawn)	-4	i	nt	nt	nt	0	-2	nt
CC(C)(C)C(=O)C1=C(O)C(=O)N(Cc2ccccc2)C1c1ccccc1F (stereo not drawn)	-17	i	5	-1	2	6	-5	-29
O=C1NC(Cc2ccccc2)c2nc3cc(F)ccc3c(=O)n2-c2cc3ccccc3cc21 (stereo not drawn)	nt	nt	-17	-13	-14	nt	nt	-14
NC(=O)c1nsc(C(=O)N(Cc2ccco2)C(C(=O)NCc2ccc(F)cc2)c2ccc(O)cc2)c1N (stereo not drawn)	6	i	31	-4	-1	-2	-1	2
O=C(CSc1nnc(-c2ccccn2)n1Cc1ccccc1)N1CCCC1	4	i	nt	-7	-2	32	-6	-16
CC1(C)C(C(=O)OCC(Cl)(Cl)Cl)N2C(=O)C(NC(=O)Cc3ccccc3)C2S1=O (stereo not drawn)	0	i	4	2	1	2	7	4
CN(CC(=O)Nc1ccc(Cl)c(Cl)c1)C(=O)C12CC3CC(CC(C3)C1)C2	?	i	-14	-6	-7	-2	0	nt
COCCCNC(=O)C1=CCN(S(=O)(=O)c2ccc(C)cc2)CC1	-7	i	-2	0	3	2	-6	-12
Cc1nn(C(C)c2n[nH]c(=S)n2-c2cccc(Cl)c2)c(C)c1[N+](=O)[O-] (stereo not drawn)	8	i	-15	5	4	-8	-6	-23
C=CCCC(=O)Nc1nc(C)c(-c2csc(Nc3cc(Cl)ccc3OC)n2)s1	29	i	-14	1	-6	-11	-5	-15
COc1ccc(CCNS(=O)(=O)c2ccc3c(c2)CCCC3)cc1OC	-2	nt	nt	4	-1	nt	nt	-5
COc1ccc2cc3cc(C(=O)NCCN4CCN(c5ccccc5F)CC4)oc3nc2c1	-9	i	19	24	-18	1	-10	9
O=C(Nc1ccc(Cl)cc1)c1cc(S(=O)(=O)N2CCCCC2)ccc1N1CCOCC1	nt	nt	18	2	0	nt	nt	-13
CCOCCCNC(=O)c1cn(CC)c2ccc(S(=O)(=O)N3CCCC3)cc2c1=O	-5	i	0	-2	-2	9	-6	0
Cc1ccc(C)c(OCc2nc3ccccc3[nH]2)c1	-1	i	-29	-3	-5	16	6	-18
COc1ccc(N2CCN(C(CNC(=O)c3ccco3)c3cccnc3)CC2)cc1 (stereo not drawn)	-4	i	nt	1	-1	5	-12	-5
COc1ccc(S(=O)Cc2ccc(C(=O)NC3CC3)o2)cc1 (stereo not drawn)	17	i	-5	2	3	4	-6	-32
COc1ccc(-n2c(Cc3cccn3C)nnc2SCC(=O)Nc2ccc(F)cc2F)cc1	-1	i	-29	3	-3	-6	-1	-12
CCc1nc2ccc(C(=O)N3CCN(c4ccccc4)CC3)cn2c1N(C)CCCc1ccccc1	nt	nt	20	-5	-12	nt	nt	-13
CN(C)S(=O)(=O)n1cc(/C=C(\NC(=O)c2ccccc2Cl)C(=O)NCCN2CCOCC2)c2ccccc21	2	i	10	2	2	0	-7	nt
NS(=O)(=O)c1cccc(NC(=O)c2cc3ccccc3o2)c1	-6	nt	-32	-2	4	9	-5	nt
N/C(=N\OC(=O)CCCOc1ccccc1)c1ccc(Br)cc1	1	i	nt	12	6	5	10	-5
C=CCN(c1ccccc1)S(=O)(=O)c1ccc2c(c1)N(C(C)=O)CCO2	-11	i	0	-3	-2	-7	-4	-9
O=S(=O)(NCCOc1ccccc1F)c1ccc(Cl)cc1F	-22	nt	4	-1	-1	nt	nt	3
COc1ccccc1NS(=O)(=O)c1cc(NC(=O)CCC(=O)c2cccs2)ccc1Cl	0	i	nt	-1	-12	-1	-12	-9
CC(=O)Nc1nc(C)c(C(C)=O)s1	-11	i	-20	6	4	-6	-1	-26
CCC1(c2ccccc2)NC(=O)N(CC(=O)Nc2ccccc2N2CCCC2)C1=O (stereo not drawn)	8	i	nt	0	1	nt	nt	16
CCCOc1ccc2c(c1)C(=NN=C(N)N)c1cc(OCCC)ccc1-2	112*	i	-21	-2	-5	24	-7	-3
O=[N+]([O-])c1ccc(CN2CCC(Cc3ccccc3)CC2)cc1	8	i	-3	1	0	7	8	-12
Cc1cc(C)c2nc(N3CCOCC3)c(C#N)cc2c1	15	i	-14	-4	-1	-1	0	-12
CCn1nc(CC(=O)Nc2ccc(-n3cnnn3)c(C)c2)c2ccccc2c1=O	nt	i	-6	0	1	1	-3	-16
Cc1nc(CN2CCN(Cc3nc(C(c4ccccc4)c4ccccc4)no3)CC2)cs1	nt	i	-12	-1	3	-1	5	nt
CN(C(=O)CCNC(=O)N1CC(=O)Nc2ccccc21)C1CCCCC1	-3	i	-5	0	2	-2	4	-24
CN(Cc1cccc(-n2cccn2)c1)Cc1cn(C)nc1-c1ccccc1F	0	i	-22	-4	2	-5	-2	nt
CC(=O)OC(COc1ccc(F)cc1)Cn1cnc2ccccc21 (stereo not drawn)	-9	i	-10	-2	1	-8	6	nt
O=C(Nc1ncccc1O)c1ccc(Cl)c(S(=O)(=O)N2CCCCCC2)c1	-4	i	-9	-5	-7	nt	nt	nt
c1cc2c3c(cccc3c1)NC1(CCCCCC1)N2	8	i	-17	4	-4	-6	34	3
Cc1cc[n+]2n1CC(O)C2 (stereo not drawn)	-4	i	6	-1	1	5	-1	10

The list goes on.
SMILES	CSC inhib	Rce1 inhib	HIV Env fusion	MT1-MMP act inh	MT1-MMP act inh RFP	PABP FP inh	eIF4H inh	Yeast UUG start
Cc1ccc(/C=N\n2c(-c3ccccc3)n[nH]c2=S)s1	nt	i	nt	3	0	-1	-6	-18
Cc1cccc(-c2noc(CNC(=O)c3ccoc3C)n2)c1	-8	i	nt	-18	0	-6	36	-10
Cc1nn(-c2ccccc2)c2sc(C(=O)OC3CCOC3=O)cc12 (stereo not drawn)	5	i	nt	3	5	1	-2	-1
COc1cccc(-c2cc(C(=O)N3CCN(Cc4ccc5c(c4)OCO5)CC3)on2)c1	nt	i	10	0	-1	-11	9	23
COc1cccc(N2CCN(C(=O)CN(c3ccc(C)cc3)S(=O)(=O)c3c(C)n[nH]c3C)CC2)c1	-8	i	10	1	0	-6	-4	-3
CC(C)NC(=O)N(C)C[C@H]1Oc2ccc(NC(=O)Nc3ccc4c(c3)OCO4)cc2C(=O)N([C@H](C)CO)C[C@@H]1C	-13	nt	-5	-1	6	nt	nt	-1&2
CN(Cc1nc(-c2cnccn2)no1)Cc1n[nH]c2c1CCCCC2	-10	i	3	0	1	-8	3	nt
O=C(N/N=C1\CCCc2ccccc21)C(O)c1ccccc1 (stereo not drawn)	-8	i	nt	5	6	?	?	-16
CCN(CCCNC(=O)CCCn1c(=O)[nH]c2ccccc2c1=O)c1cccc(C)c1	-8	i	-43	10	-1	4	-9	4
Cc1cc(N2C(=O)C(O)=C(C(=O)c3cc4ccccc4o3)C2c2cccc(Cl)c2)no1 (stereo not drawn)	14	i	8	1	4	nt	nt	-11
CCOc1ccc(NC(=O)N2CCC(NC(=O)C(Cc3ccccc3OC)NC(C)=O)CC2)cc1 (stereo not drawn)	-9	i	-10	3	0	4	-10	-17
CC(=O)N1C(=O)C2(Nc3ccccc3N2)c2ccccc21	-6	i	nt	-4	-2	-1	5	0
CCN(Cc1ccccc1)C(=O)CCS(=O)(=O)c1ccc2c(c1)oc(=O)n2C	1	i	-3	2	2	2	-18	7
Cc1cnc(C(=O)OCC(=O)NC23CC4CC(CC(C4)C2)C3)cn1	-15	i	nt	1	3	0	-1	-2
COc1ccc(Cc2nnc3n2N=C(c2cc4ccccc4o2)CS3)cc1OC	nt	i	-21	5	-3	nt	nt	24
Cc1cc(C)cc(NC(=S)N=Nc2c(O)n(C)c3ccc(S(=O)(=O)N4CCOCC4)cc23)c1	31	i	41	18	4	8	-1	-27
CCOC(=O)C1=C(CC)Nc2ccccc2N=C1NC(=O)Cn1cnc2ccccc2c1=O	-9	i	-70	0	-1	-4	-2	-13
Cc1cc(-c2nn(-c3ccccc3F)cc2CNCCc2cnc[nH]2)c(C)s1	-5	i	?	5	6	-11	-13	-20

Fetched one by one from above:
SMILES	CSC inhib	Rce1 inhib	HIV Env fusion	MT1-MMP act inh	MT1-MMP act inh RFP	PABP FP inh	eIF4H inh	Yeast UUG start
COc1cccc(-c2cc(C(=O)N3CCN(Cc4ccc5c(c4)OCO5)CC3)on2)c1	nt	i	10	0	-1	-11	9	23
CN(C(=O)CCNC(=O)N1CC(=O)Nc2ccccc21)C1CCCCC1	-3	i	-5	0	2	-2	4	-24
